Compound activity: PubChem, several laboratories
FPR binder – human FPR ligand, with FPRL1 counter-screen | inhibition, %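 (tested at 6.7 µM)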 | 0.74% of 24,000 active | FPR-expressing cells, fluorescent ligand binding, flow cytometry;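 also: 0% = buffer wells and 100% = receptor blocker peptide wells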
Target sequence (P21462 whole entry, looked up): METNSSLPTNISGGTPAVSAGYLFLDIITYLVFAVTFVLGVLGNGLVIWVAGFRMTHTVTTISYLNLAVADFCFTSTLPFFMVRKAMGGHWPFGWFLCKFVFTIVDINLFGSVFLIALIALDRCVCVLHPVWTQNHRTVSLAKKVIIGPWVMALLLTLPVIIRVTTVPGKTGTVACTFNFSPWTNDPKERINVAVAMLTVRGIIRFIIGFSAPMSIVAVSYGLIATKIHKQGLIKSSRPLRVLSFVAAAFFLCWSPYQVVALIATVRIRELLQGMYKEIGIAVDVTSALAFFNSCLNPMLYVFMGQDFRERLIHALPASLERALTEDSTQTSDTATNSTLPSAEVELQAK
VCAM-1 down imaging – inhibitors of TNFa-induced VCAM-1 surface display, imaging, high-content imaging, pooled HUVEC, TNFa stimulus (AID 456) | inhibition, % at 5 µM; hits with a dose series show IC50 in µM | 0.2% of 10,000 active | HUVEC TNFa-induced VCAM-1 surface expression, immunofluorescence imaging; numbers were filed only for top-ranked candidate wells;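 active = top tenth filtered wells with inhibition above zero that passed visual or statistical confirmation; inactive = the rest, including hits rejected on review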;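 also: 0% = stimulated vehicle wells and 100% = unstimulated cells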
VCAM-1 up imaging – boosters of cytokine-driven VCAM-1 levels – imaging, high-content imaging, pooled HUVEC, TNFa stimulus (AID 457); Pooled HUVEC, TNFa-induced VCAM-1 immunofluorescence imaging; hits of this screen are not shown here; calls only; 0.2% of 10,000 active;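 active = a top-ranked rise in VCAM-1 staining upheld on image or statistical review; inactive = the rest, including candidates rejected on review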;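 also: compounds tested at 5 µM in the well; cells exposed to compound for 24 hours before fixing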
FPRL1 binder – binds the human formylpeptide receptor-like-1 FPRL1; AID 441; P25090; FPRL1-expressing cells, fluorescent ligand binding inhibition, flow cytometry; inhibition, %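 (tested at 6.7 µM)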; 0.3% of 24,000 active;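 also: 0% = buffer alone and 100% = receptor blocker peptide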
Target sequence (P25090 whole entry, looked up): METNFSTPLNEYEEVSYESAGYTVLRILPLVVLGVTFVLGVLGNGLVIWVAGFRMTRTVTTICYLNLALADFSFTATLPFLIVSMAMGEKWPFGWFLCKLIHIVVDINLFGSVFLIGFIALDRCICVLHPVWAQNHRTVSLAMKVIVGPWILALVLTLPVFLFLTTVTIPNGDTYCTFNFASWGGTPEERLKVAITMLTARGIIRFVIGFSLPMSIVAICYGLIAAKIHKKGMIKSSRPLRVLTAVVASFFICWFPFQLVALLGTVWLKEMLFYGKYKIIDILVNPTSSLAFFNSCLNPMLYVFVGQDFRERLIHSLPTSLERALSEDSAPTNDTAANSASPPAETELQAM
VCAM-1 inhibition – inhibitors of TNFa-induced VCAM-1 surface display, cell-based, plate reader, pooled HUVEC, TNFa stimulus (AID 454); HUVEC TNFa-induced VCAM-1 surface immunofluorescence, plate reader; numbers were filed only for top-ranked candidate wells; inhibition, % at 5 µM; 0.2% of 10,000 active;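 active = compound among top-ranked inhibitors of TNF-induced VCAM-1 adhesion protein staining, with the hit upheld by image or statistical review; inactive = the rest, including hits rejected on review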;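 also: 0% = TNFa with vehicle and 100% = cells without TNFa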
The depositor's hits bear a star; i = inactive; ? = inconclusive; . = not tested or not shown.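 The calls were made as follows, unless noted: active = mean above 30%; inconclusive = self-fluorescent; inactive = the rest.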 Only part of the results is shown. The share of hits here may be higher or lower than overall.

mol	FPR binder	VCAM-1 down imaging	VCAM-1 up imaging	FPRL1 binder	VCAM-1 inhibition
O=C(NCCCN1CCN(c2ccc(F)cc2)CC1)c1cccc(N2CCCC2=O)c1	-2	.	.	31*	.
O=C1CCCC2=C1C(c1ccncc1)c1c(nc(SCc3ccccc3)[nH]c1=O)N2 (stereo unspecified)	18	.	.	2	.
CCNC(=O)CC1C(=O)N(c2ccccc2)C(=O)N1CCc1ccc(OC)cc1 (stereo unspecified)	-1	.	.	12	.
COc1ccccc1OCCCCNCCO	-8	i	i	4	i
O=C(Nc1ccc2c(c1)OCCO2)c1ccco1	-3	i	i	6	i
CCOC(=O)c1[nH]c(C)c(C(=O)NCCC2=CCCCC2)c1C	0	.	.	1	.
C=CCOc1ccc(C2C(C(=O)c3cccs3)=C(O)C(=O)N2c2nnc(C)s2)cc1 (stereo unspecified)	43*	.	.	21	.
O=C(CCCCn1c(=O)[nH]c2ccccc2c1=O)NCCc1c[nH]c2ccccc12	2	.	.	-4	.
COc1ccc(CN2C(=O)CCC2(C)C(=O)NC2CCCC2)c(OC)c1 (stereo unspecified)	3	.	.	-2	.
Cn1c(/C(C#N)=C(\O)c2ccc(S(=O)(=O)N3CCCCC3)cc2)nc2ccccc21	2	.	.	14	.
CCSC1(SCC)N=C(N)C2(C#N)C(c3ccccc3)NC(C)=C(C)C12C#N (stereo unspecified)	-2	i	i	-5	i
COc1cccc(/C(O)=C2/C(=O)C(=O)N(Cc3cccnc3)C2c2ccco2)c1 (stereo unspecified)	34*	.	.	26	.
O=C(c1noc2c1CCc1ccccc1-2)N1CCCc2ccccc21	2	.	.	-3	.
CCOC(=O)c1[nH]c(C)c(C(=O)NCCCOC(C)C)c1C	-4	.	.	2	.
CCOC(=O)c1oc2cc(OCC(N)=O)ccc2c(=O)c1-c1ccc(OC)c(OC)c1	0	i	i	-2	i
O=C(NCCc1ccc(Cl)cc1)C1CCN(S(=O)(=O)N2CCC3(CC2)OCCO3)CC1	-2	.	.	7	.
CC(=O)Nc1nonc1NC(=O)CSc1nc2ccccc2o1	0	.	.	-1	.
C=Cn1c(C(=O)O)cc(CC)c1-c1ccccc1	-15	i	i	-10	i
CCOc1ccc(OCc2cccc(C(=O)N3CCOCC3)c2)cc1	3	i	i	0	i
CCC1CCCCN1S(=O)(=O)c1ccc(C(=O)Nc2nnc(-c3cccs3)o2)cc1 (stereo unspecified)	0	i	i	-2	i
CCC(CC)n1[nH]c(=O)c2c(C)cc(C)nc21	-1	i	i	-4	i
CCOC(=O)c1[nH]c(C)c(C(=O)NCC2CCCO2)c1C (stereo unspecified)	-1	i	i	-3	i
COc1ccc(C(=O)N2CCC(C(=O)Nc3ccccc3OC)CC2)cc1	3	.	.	3	.
COc1ccc(-c2cc(C(=O)Nc3cc(C)n(Cc4ccc(Cl)cc4)n3)no2)cc1OC	-5	.	.	-3	.
COc1ccccc1-c1coc2c(CN3CCN(CCO)CC3)c(O)ccc2c1=O	-10	i	i	-8	i
COc1cc(NC(=O)c2cc(OC)c(OC)c(OC)c2)c(OC)cc1NC(=O)CN1CCCCC1	-3	i	i	-3	i
O=C(NCCc1ccccc1)C1CCN(C(=O)c2sccc2-n2cccc2)CC1	9	.	.	3	.
Cc1nn(Cc2c(Cl)cccc2Cl)c(C)c1NC(=O)c1cc(C(C)C)on1	-4	.	.	3	.
O=C(NC1CCCCC1)c1nc2c(nnn2Cc2ccccc2Cl)c(=O)[nH]1	-3	i	i	2	i
Cn1nc(CC(=O)Nc2ccc(N3CCN(C(=O)OC(C)(C)C)CC3)cc2)c2ccccc2c1=O	5	i	i	4	i
O=C(CSc1nc2c(cnn2-c2ccc(F)cc2)c(=O)[nH]1)N1CCOCC1	5	.	.	3	.
O=C(CCn1c(=O)sc2ccccc21)NCc1ccc2c(c1)OCO2	-4	i	i	-1	i
C/C(=C\c1cc(C(=O)O)c(C)o1)CO	-6	i	i	4	i
O=C(NCCCN1CCOCC1)c1ccc(CS(=O)(=O)Cc2ccc(Cl)cc2)o1	-1	.	.	2	.
CC1=C(C(N)=O)C(c2cccnc2)n2nc(-c3cccc(Cl)c3)nc2N1 (stereo unspecified)	1	.	.	0	.
CCOC(=O)N1CCN(C(=O)COc2ccc(S(=O)(=O)NC(C)C)cc2)CC1	-5	i	i	-1	i
COc1ccc(CCNC(=O)C2CC(=O)N(C3CCCC3)C2)cc1OC (stereo unspecified)	-3	.	.	6	.
Cn1c(=O)cc(SCC(=O)N2CCCC2)c2cc(Cl)ccc21	3	.	.	5	.
O=C(O)c1ccc(C2SCC(=O)N2Cc2ccccc2)cc1 (stereo unspecified)	1	i	i	2	i
O=C(NC1CCCC1)C(c1cccs1)N(Cc1ccco1)C(=O)Cn1nnc(-c2cccs2)n1 (stereo unspecified)	11	i	i	-2	i
COc1ccccc1-c1c(C)oc2c(CN3CCN(C)CC3)c(O)ccc2c1=O	-2	.	.	10	.
COc1cccc(NC(=O)CN2CCN(S(=O)(=O)c3ccc(C(C)C)cc3)CC2)c1	2	.	.	-1	.
CCOC(=O)c1c(COC(=O)c2ccco2)nc2ccccc2[n+]1[O-]	1	i	i	6	i
COc1cccc(-c2nc(CS(=O)(=O)CC(=O)Nc3cc(C)ccc3C)c(C)o2)c1	-3	i	i	-6	i
Cc1ccccc1-n1c(=O)cc(NCC2CCCO2)[nH]c1=O (stereo unspecified)	6	.	.	9	.
CCOc1ccc(NC(=O)c2ccccc2CO)cc1	-15	.	.	-11	.
Cc1c(/C(O)=C2/C(=O)C(=O)N(CCN3CCOCC3)C2c2cccs2)cnn1-c1ccccc1 (stereo unspecified)	-6	i	i	2	i
CCOc1ccc(NC(=O)CSc2nnnn2CC(=O)O)cc1	-4	i	i	-12	i
COc1ccccc1OCCSc1nnnn1-c1ccc(C)cc1	4	.	.	1	.
CCCOc1ccc(C2C(C(=O)c3ccc(C)o3)=C(O)C(=O)N2Cc2cccnc2)cc1 (stereo unspecified)	52*	i	i	11	i
CCCC(=O)Nc1ccc(NC(=O)C2CC2)cn1	24	i	i	4	i
CCOC(=O)C1=C(C)N(C)C(C)=C(C(=O)OCC)C1c1cccnc1	-12	i	i	0	i
COCCNC(=O)C(C)N(c1ccc(Oc2ccccc2)cc1)S(C)(=O)=O (stereo unspecified)	4	i	i	1	i
CN1CCN(c2nc3c(c(=O)[nH]c(=O)n3C)n2CCSc2nc3ccccc3s2)CC1	-5	i	i	0	i
CC1CCN(c2nc3c(c(=O)n(C)c(=O)n3C)n2Cc2ccccc2)CC1	6	i	i	-2	i
Cc1onc(-c2c(Cl)cccc2Cl)c1C(=O)NCCCN1CCOCC1	-9	i	i	1	i
Cc1cc(C(=O)N2CCN(c3ncccn3)CC2)cs1	-4	i	i	-5	i
O=C(O)c1cc2cc(OCc3ccccc3)ccc2[nH]1	-1	.	.	-5	.
CCNC(=O)c1sc(=S)n(CC)c1N	4	.	.	4	.
O=C(NCCCN1CCN(c2ccccc2F)CC1)C1CCC(=O)N1C1CCCC1 (stereo unspecified)	0	.	.	-2	.

A different layout for 4 compounds above.
SMILES: Cc1cc(C(=O)N2CCN(c3ncccn3)CC2)cs1
- FPR binder = -4
- VCAM-1 down imaging = i
- VCAM-1 up imaging = i
- FPRL1 binder = -5
- VCAM-1 inhibition = i

SMILES: CCNC(=O)c1sc(=S)n(CC)c1N
- FPR binder = 4
- VCAM-1 down imaging = .
- VCAM-1 up imaging = .
- FPRL1 binder = 4
- VCAM-1 inhibition = .

SMILES: CN1CCN(c2nc3c(c(=O)[nH]c(=O)n3C)n2CCSc2nc3ccccc3s2)CC1
- FPR binder = -5
- VCAM-1 down imaging = i
- VCAM-1 up imaging = i
- FPRL1 binder = 0
- VCAM-1 inhibition = i

SMILES: Cc1ccccc1-n1c(=O)cc(NCC2CCCO2)[nH]c1=O (stereo unspecified)
- FPR binder = 6
- VCAM-1 down imaging = .
- VCAM-1 up imaging = .
- FPRL1 binder = 9
- VCAM-1 inhibition = .

(more compounds)
mol	FPR binder	VCAM-1 down imaging	VCAM-1 up imaging	FPRL1 binder	VCAM-1 inhibition
COc1ccccc1N1CCN(C(=O)c2cc3cc(Br)ccc3oc2=O)CC1	3	.	.	-2	.
CCOC(=O)N1CCN(C(=O)c2ccc3nc4cc(Cl)ccc4c(=O)n3c2)CC1	-5	i	i	-10	i
CCCS(=O)(=O)N1CCC(C(=O)N2CCC(Cc3ccccc3)CC2)CC1	6	.	.	3	.
COc1ccc(-c2cn3c(C)c(C(=O)NCCN4CCOCC4)sc3n2)cc1	4	.	.	-1	.
COc1ccc(CCNC(=O)c2nnn(-c3ccccc3OC)c2N)cc1OC	-4	.	.	3	.
Cc1ccc(-n2c(N)c(C(N)=O)sc2=S)c(C)c1	-4	.	.	-2	.
CC(C)(C)OC(=O)N1CCN(c2ccc(NC(=O)c3cc4ccccc4oc3=O)cc2)CC1	3	i	i	0	i
O=C(CCCn1ncn2c(cc3occc32)c1=O)N1CCc2ccccc2C1	-5	i	i	-3	i
COC1CCCCC1NS(=O)(=O)c1ccc(Cl)cc1 (stereo unspecified)	-3	.	.	0	.
COC(=O)c1cc2c(cc1NC(=O)CSCCc1ccccn1)OCO2	-3	.	.	-22	.
Cc1ccc2nc3c(cc(C(=O)NCc4ccccc4)c(=N)n3CCCn3ccnc3)c(=O)n2c1	-7	.	.	3	.
CCOC(=O)CNC(=O)c1cn(CC(C)C)c(=O)c2cc(OC)c(OC)cc12	11	.	.	1	.
c1cncc(-c2nc3ccccc3o2)c1	?	.	.	?	.
c1ccc2c(c1)c1c3n2CCNC3CCC1 (stereo unspecified)	12	i	i	0	i
COc1ccc(OC)c(-n2nnnc2SCC(=O)NCc2ccc3c(c2)OCO3)c1	7	i	i	4	i
COc1ccc(C(O)Cn2c(=N)n(CCCN(C)C)c3ccccc32)cc1 (stereo unspecified)	-1	i	i	2	i
CC1(C)CC(=O)c2cc(OCC(=O)NCC3CCCO3)ccc2O1 (stereo unspecified)	1	.	.	-2	.
CN(C)C(CNS(=O)(=O)c1ccc(Br)cc1)c1cccnc1 (stereo unspecified)	-16	.	.	-6	.
CCn1cc(C(=O)NCc2ccco2)c(=O)c2cc(S(=O)(=O)N3CCCCCC3)ccc21	1	.	.	1	.
O=C(NCCCN1CCN(Cc2ccccc2)CC1)C1CCN(S(=O)(=O)N2CCCC2)CC1	1	.	.	2	.

Molecules shown so far that contain a halogen (15):
mol	FPR binder	VCAM-1 down imaging	VCAM-1 up imaging	FPRL1 binder	VCAM-1 inhibition
O=C(NCCCN1CCN(c2ccc(F)cc2)CC1)c1cccc(N2CCCC2=O)c1	-2	.	.	31*	.
O=C(NCCc1ccc(Cl)cc1)C1CCN(S(=O)(=O)N2CCC3(CC2)OCCO3)CC1	-2	.	.	7	.
COc1ccc(-c2cc(C(=O)Nc3cc(C)n(Cc4ccc(Cl)cc4)n3)no2)cc1OC	-5	.	.	-3	.
Cc1nn(Cc2c(Cl)cccc2Cl)c(C)c1NC(=O)c1cc(C(C)C)on1	-4	.	.	3	.
O=C(NC1CCCCC1)c1nc2c(nnn2Cc2ccccc2Cl)c(=O)[nH]1	-3	i	i	2	i
O=C(CSc1nc2c(cnn2-c2ccc(F)cc2)c(=O)[nH]1)N1CCOCC1	5	.	.	3	.
O=C(NCCCN1CCOCC1)c1ccc(CS(=O)(=O)Cc2ccc(Cl)cc2)o1	-1	.	.	2	.
CC1=C(C(N)=O)C(c2cccnc2)n2nc(-c3cccc(Cl)c3)nc2N1 (stereo unspecified)	1	.	.	0	.
Cn1c(=O)cc(SCC(=O)N2CCCC2)c2cc(Cl)ccc21	3	.	.	5	.
Cc1onc(-c2c(Cl)cccc2Cl)c1C(=O)NCCCN1CCOCC1	-9	i	i	1	i
O=C(NCCCN1CCN(c2ccccc2F)CC1)C1CCC(=O)N1C1CCCC1 (stereo unspecified)	0	.	.	-2	.
COc1ccccc1N1CCN(C(=O)c2cc3cc(Br)ccc3oc2=O)CC1	3	.	.	-2	.
CCOC(=O)N1CCN(C(=O)c2ccc3nc4cc(Cl)ccc4c(=O)n3c2)CC1	-5	i	i	-10	i
COC1CCCCC1NS(=O)(=O)c1ccc(Cl)cc1 (stereo unspecified)	-3	.	.	0	.
CN(C)C(CNS(=O)(=O)c1ccc(Br)cc1)c1cccnc1 (stereo unspecified)	-16	.	.	-6	.
